Screens: PubChem BioAssay, National Center for Advancing Translational Sciences (NCATS)
TRPV1 PAM – potentiators of human vanilloid receptor 1 (TRPV1) | TRPV1-expressing cells, Fluo-8 calcium influx, capsaicin EC20 potentiation; host cell line not named in the record; control for the full effect not named in the record | potentiation, % at 8.33 µM | 320,000 compounds, 0.02% hits; active means potentiation above 80%; inconclusive means 30% to 80%; inactive means below 30%; further: 0% is about no effect
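TRPV1-expressing cells were cultured overnight at 35.5C and loaded with Fluo-8 calcium dye for 40 to 90 min at room temperature. After a 10 s baseline, compound was added and calcium influx was read kinetically for 3 min (ex 480/em 520 nm).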
CtBP-E1A inh – blocks the CtBP interaction with E1A; AlphaScreen GST-E1A/His-CtBP binding, 1536-well; active compounds read low; control for the full effect not named in the record; activity change, % (test concentration not listed); 340,000 compounds, 0.49% hits; in the data active means activity change below about -65%; inconclusive means about -30% to -65%; inactive means above about -30%; further: on the % scale 0 is the no-effect control and ±100 the full control effect
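In 5 uL wells, 23 nL compound meets equimolar GST-E1A and His-CtBP (5X stock 125 nM each) for 2 h, 37 °C. Beads (5X, 50 ug/mL) then 1 h, 37 °C, dark.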
TRPML1 inh – blocks the human TRPML1 channel; Q9GZU1; TRPML1-inducible cells, Ca2+ dye fluorescence, FDSS; active compounds read low; inhibition of EC80 agonist-evoked calcium signal; 390,000 compounds, 0.02% hits; activity change, negative = inhibition, % (test concentration not listed); in the data active means activity change below about -50%; inconclusive means about -30% to -50%; inactive means above about -30%;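 further: stimulus is agonist 54-4 at its EC80 concentration; on the % scale 0 is the no-effect control and ±100 the full control effect; compound concentration not given in the record; the text of the record puts the active cut at -80%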
Target sequence (Q9GZU1 whole entry, looked up): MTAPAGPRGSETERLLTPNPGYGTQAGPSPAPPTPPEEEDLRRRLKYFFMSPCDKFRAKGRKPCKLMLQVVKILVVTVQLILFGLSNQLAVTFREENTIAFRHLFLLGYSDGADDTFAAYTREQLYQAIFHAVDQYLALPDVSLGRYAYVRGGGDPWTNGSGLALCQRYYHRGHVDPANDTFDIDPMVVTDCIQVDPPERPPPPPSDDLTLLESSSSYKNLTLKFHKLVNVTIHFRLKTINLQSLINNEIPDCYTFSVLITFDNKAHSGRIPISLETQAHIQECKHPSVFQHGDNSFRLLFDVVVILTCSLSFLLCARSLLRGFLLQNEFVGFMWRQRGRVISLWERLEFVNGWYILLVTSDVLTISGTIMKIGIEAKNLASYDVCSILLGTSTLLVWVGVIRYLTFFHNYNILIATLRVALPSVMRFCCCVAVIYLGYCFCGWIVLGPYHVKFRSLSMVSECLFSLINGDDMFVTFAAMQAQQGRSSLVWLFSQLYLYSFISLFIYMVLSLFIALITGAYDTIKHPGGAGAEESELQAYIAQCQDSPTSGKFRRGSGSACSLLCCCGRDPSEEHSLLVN
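Tet-induced TRPML1-DL cells loaded with Ca8 no-wash calcium dye were read kinetically on FDSS. Compound addition was followed by EC80 agonist 54-4 (4 uM final); inhibition was read over 110 s.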
TRPML1 agonist – activates the human TRPML1 channel | 410,000 compounds, 0.12% hits | activation, % (no concentration beside the values) | Q9GZU1 | AID 624414 | TRPML1-expressing cells, Ca2+ dye fluorescence, FDSS; host cell line not named in the record; reference of the full effect not given here; in the data active = activation above about 50%; inconclusive = about 30% to 50%; inactive = below about 30%; further: 0% is about no effect; the text of the record puts the active cut at 80%
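Cells: TRPML1-DL, 1X Tet inducer, ~16 h at 37 degrees C/5% CO2. Dye: ABD Ca8 no-wash + quencher, 45-90 min RT. Read: 10 s baseline, compound add, 110 s agonist phase; 54-4 EC80 (4uM final), 110 s antagonist phase.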
Six1-Eya2 blk – Six1/Eya2 interaction inhibition; Q15475+O00167; AlphaScreen GST-Six1/His-Eya2 binding, biochemical; active compounds read low; control for the full effect not named in the record; activity change, % (concentration not given with the values); 360,000 compounds, 0.56% hits; in the data active = activity change below about -65%; inconclusive = about -30% to -65%; inactive = above about -30%; further: on the % scale 0 is the no-effect control and ±100 the full control effect
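Compounds are tested against tagged Six1 and Eya2 proteins bridged by glutathione donor and nickel acceptor beads; after a one-hour incubation at 37 °C without light, AlphaScreen emission is recorded.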
D2 PAM – human D2 receptor positive allosteric modulation. P14416. DiscoveRx D2 beta-arrestin cells, luminescence, 90 min; 100% = 57 uM dopamine signal. potentiation, % (test concentration not listed). 360,000 compounds, 0.23% hits. AID 624464; active = potentiation of 50% or more; inconclusive = 30% to 50%; inactive = 30% or less;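 further: compound concentration not given in the record; tested on top of an EC20 dose of dopamine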
Target sequence (P14416 whole entry, looked up): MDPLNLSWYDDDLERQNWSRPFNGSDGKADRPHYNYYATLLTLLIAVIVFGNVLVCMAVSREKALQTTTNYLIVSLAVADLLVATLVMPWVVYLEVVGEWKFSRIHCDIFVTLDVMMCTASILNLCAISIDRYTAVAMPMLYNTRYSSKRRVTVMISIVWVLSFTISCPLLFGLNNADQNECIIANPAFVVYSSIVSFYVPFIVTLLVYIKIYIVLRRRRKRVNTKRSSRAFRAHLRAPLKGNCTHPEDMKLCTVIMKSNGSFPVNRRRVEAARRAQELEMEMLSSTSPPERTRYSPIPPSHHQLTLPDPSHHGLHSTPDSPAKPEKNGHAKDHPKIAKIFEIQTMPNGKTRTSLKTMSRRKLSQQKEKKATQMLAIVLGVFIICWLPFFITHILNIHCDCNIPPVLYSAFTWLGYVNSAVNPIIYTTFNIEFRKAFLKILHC
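D2 cells co-treated with compound plus 50 nM dopamine (EC20) for 90 min at 37 deg C to detect potentiation. Beta-arrestin recruitment was read as enzyme-fragment luminescence after 1 h at ambient temperature. Full response was set by 57 uM dopamine.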
* = called active by the depositor; ? = inconclusive; . = not tested or not shown.

smiles | TRPV1 PAM | CtBP-E1A inh | TRPML1 inh | TRPML1 agonist | Six1-Eya2 blk | D2 PAM
NS(=O)(=O)c1ccc(CCNC(=O)c2ccc(Br)s2)cc1 | -11 | -10 | 15 | 0.1 | 6 | -3
C=CCc1cccc2cc(C(=O)Nc3ccc(S(=O)(=O)Nc4nnc(CC)s4)cc3)c(=O)oc12 | 1 | -16 | -10 | -0.7 | 6 | 6
CC(C)(C)c1ccc(OCC(O)CN2CCCC2)cc1 (centres undefined) | -7 | 9 | 36 | -0.2 | -7 | -6
Cc1cc(C)c2cc(C#N)c(N3CCNCC3)nc2c1 | . | 3 | 2 | 0.6 | 1 | -1
c1ccc2sc(Cc3nnc4n3CCCCC4)nc2c1 | 0 | 11 | -2 | -0.6 | 3 | -10
CN(C)c1ccc(C2N3CC4(C)CN2CC(C)(C3)C4O)cc1 (centres undefined) | -37 | 10 | -7 | 0.7 | 3 | -4
COCc1nnc(NC(=O)CC(C)C)s1 | 6 | 1 | 4 | 0.8 | 5 | -2
COC(C/C=C\[C@@H](O)COCc1ccccc1)OC | ? | 0 | 22 | -0.3 | 14 | -39
CC(C)(C)C(=O)C(Cc1ccccc1Cl)n1cncn1 (centres undefined) | -8 | -1 | 27 | -0.8 | 2 | -3
Cc1ccc(/C=N\NC(=O)Cc2noc3ccccc23)cc1 | -6 | 6 | 0 | -1.2 | 9 | 5
COc1ccc(C(=O)N2CCN(C3CCC(c4ccccc4)CC3)CC2)cc1OC (centres undefined) | -6 | -3 | 2 | 0.1 | -5 | -16
CCOc1ccc(NS(=O)(=O)c2ccc(C(=O)N3CC(C)OC(C)C3)cc2)cc1 (centres undefined) | -11 | . | 17 | 26 | -4 | -5
C[C@]12CCC[C@H](O1)[C@H]([C@@H](O)c1ccccc1)O2 | 6 | -22 | -19 | 0.9 | 14 | -6
CCN(C(=O)C(C)Sc1ccc(S(=O)(=O)N2CCOCC2)cn1)c1ccccc1 (centres undefined) | -19 | 2 | 11 | 0.8 | 2 | 2
COc1ccccc1NC(=O)C1CCCN(C(=O)NCc2ccccc2)C1 (centres undefined) | 1 | -12 | -7 | -0.6 | -3 | -3
Cc1ccc(-c2ccc(C(=O)Nc3cccc(F)c3)o2)c2ccccc12 | -12 | 5 | 57 | 0.9 | -7 | -5
CC1CCN(CCCNC(=O)C2CCC(CNS(=O)(=O)c3cccc4nsnc34)CC2)CC1 (centres undefined) | -1 | 2 | -18 | 0.2 | 1 | -17
Nc1nc(NCc2ccco2)nc(N2CCN(Cc3ccccc3)CC2)c1[N+](=O)[O-] | . | -16 | -4 | 1.3 | -23 | -26
Cc1cc(Br)cn2c(Cc3ccsc3)c(-c3ccco3)nc12 | . | 0 | -1 | -0.1 | ? | -5
CCOC(=O)c1cnc2ccc(OCC)cc2c1NCc1cccnc1 | -28 | 0 | 5 | -0.2 | 0 | -7
O=S(=O)(c1ccccc1Br)N1CCN(c2ncccn2)CC1 | 17 | -10 | -8 | -0.1 | -3 | -8
CC(C)(C)C(=O)Nc1c2c(nn1-c1ccccc1)CSC2 | 0 | . | 26 | -0.5 | 7 | -9
N#CCCN(C(=O)Nc1ccccc1)C1CCCCC1 | . | 11 | -11 | 0.1 | 9 | 2
Cc1ncoc1C(=O)Nc1ccccc1C(N)=O | 22 | -10 | -16 | 0.2 | -3 | 3
CC1CCN(S(=O)(=O)c2ccc(NC(=O)CSc3nnnn3C)cc2)CC1 | -1 | 7 | 1 | -0.5 | 4 | -13
CSc1ccc(CNC(C)(C)CO)cc1 | -12 | 2 | 2 | 0.4 | 8 | 1
CC(C)N(C(=O)CN1C(=O)NC2(CCCCCC2)C1=O)C(C)C | -1 | 3 | 20 | 0.3 | 7 | -12
COc1cc(OC)nc(Nc2nc(C(N)Cc3ccccc3)cs2)n1 (centres undefined) | . | -27 | . | -0.4 | -20 | -5
O=C(NC1CCC(O)CC1)c1ccccc1OCc1ccc(F)cc1 (centres undefined) | -30 | 6 | 48 | 0.1 | -2 | 10
Cc1ccccc1CNCc1cccnc1 | -4 | 9 | 4 | -1.3 | -6 | 4
CCOc1ccc(Cl)cc1C(c1c(C)[nH][nH]c1=O)c1c(C)[nH][nH]c1=O | 7 | -5 | -7 | -0.6 | -3 | 0
CC(C)c1ccc(C2NC(C(=O)O)CS2)cc1 (centres undefined) | 7 | -1 | 7 | -0.2 | 0 | -4
COc1ccccc1NC(=O)C/C(C)=N/NC(=O)COc1c(Br)cc(Br)cc1OC | 14 | -26 | 2 | -0.4 | -16 | -16
COc1ccc(OCC(=O)NS(=O)(=O)c2ccc(Cl)cc2)cc1 | 22 | 6 | -1 | 0.0 | 3 | 1
CCCN1C2CCCC1CC(NC(=O)NC1CCCCC1)C2 (centres undefined) | -11 | 5 | -5 | -0.8 | 0 | -14
COc1ccc(NC(=O)c2cc(-c3cc(Cl)ccc3OC)n[nH]2)c(C)c1 | . | 0 | . | -1.0 | -4 | -9

Profiles as entered above. Order of values: TRPV1 PAM, CtBP-E1A inh, TRPML1 inh, TRPML1 agonist, Six1-Eya2 blk, D2 PAM
Cc1ccccc1CNCc1cccnc1 as listed: -4, 9, 4, -1.3, -6, 4
COc1ccc(OCC(=O)NS(=O)(=O)c2ccc(Cl)cc2)cc1 as listed: 22, 6, -1, 0.0, 3, 1

Next section:
smiles | TRPV1 PAM | CtBP-E1A inh | TRPML1 inh | TRPML1 agonist | Six1-Eya2 blk | D2 PAM
Cc1ccc(-c2cc(-c3ccccc3Cl)[nH]n2)c(O)c1 | -10 | 2 | -2 | 1.0 | 1 | -8
COc1cc2c(=O)c(-c3ccc(O)cc3)coc2cc1OC1OC(CO)C(O)C(O)C1O (centres undefined) | -1 | -2 | 4 | -0.4 | -4 | -9
CCOC(=O)c1nn(-c2ccc(OCC)cc2)c2nc(CC(C)C)c(C#N)c(=O)n12 | -11 | -5 | -6 | 21 | 2 | -2
CCc1ccc2c(c1)NC(=O)C2(C)Cc1ccccc1 (centres undefined) | . | 2 | . | -0.4 | 0 | -7
Cc1ccc(/C=C/C(=O)N2CCN(S(=O)(=O)/C=C/c3ccccc3)CC2)o1 | 11 | 4 | 35 | 0.3 | -6 | -8
N=C(N=C(N)N)N1CCc2ccccc21 | 4 | 2 | 53 | 0.7 | -16 | -25
O=C(Cn1c2c(sc1=O)C1c3ccccc3OCC1CS2)Nc1ccc(Cl)cc1 (centres undefined) | 3 | -6 | 15 | 0.2 | -2 | -23
O=c1c2cc(Br)ccc2nc(-c2ccccc2)n1O | ? | . | 5 | -0.1 | -2 | -18
COCC(=O)Nc1ncc(S(=O)(=O)c2ccc([N+](=O)[O-])cc2)s1 | 5 | -3 | 13 | 1.2 | 6 | ?
Cc1c(CC(=O)O)c(=O)oc2cc3c(cc12)CCC(C)(C)O3 | -3 | . | 37 | 0.0 | 11 | 2
Cc1cccc(NS(=O)(=O)c2ccc3[nH]c(=O)oc3c2)c1C | . | 9 | 6 | -0.3 | 6 | -9
CCN1CCN(c2cc(C)c3cc(NC(=O)c4cccc(OC)c4)ccc3n2)CC1 | 3 | 4 | 6 | 0.1 | -4 | -13
O=C(CCCc1nc(-c2ccccc2)no1)NC1CCCCC1 | 0 | 34 | -22 | 2.2 | 7 | 2
CCN(Cc1ccc(OC)c(F)c1)C(C)C(=O)Nc1ccc(S(=O)(=O)N2CCCC2)cc1 (centres undefined) | 29 | -18 | -3 | 0.0 | -5 | -4
Cc1ccn2c(C(=O)N/N=C\c3ccccc3[N+](=O)[O-])c(C)nc2c1 | . | -5 | -3 | -0.7 | -5 | 6
Cc1ccc(NC(=O)Cn2cccc2)cc1 | -7 | -6 | -3 | 3.4 | 0 | -3
CCOc1ccc(N2C(=O)Nc3ccccc3C2(O)C(=O)NCc2ccc(C)cc2)cc1 (centres undefined) | -3 | -9 | -1 | -1.6 | 1 | -1
COc1ccc(NC(=O)Nc2cccc3c2O[C@H](CN(C)S(=O)(=O)c2ccc(OC)cc2)[C@@H](C)CN([C@H](C)CO)C3=O)cc1 | . | -3 | 1 | -1.1 | -6 | 0
Cc1ccc(C)c2c3c([nH]c12)-c1nonc1CC3 | 4 | 1 | 9 | 1.1 | 6 | -8
Cc1ccc(NC(=O)CN(C)C(=O)Cn2nnc(-c3ccccc3C)n2)cc1 | . | -4 | -4 | 0.1 | 1 | -12
CCC(COC(C)=O)Nc1nc2c([nH]1)c(=O)n(C)c(=O)n2C (centres undefined) | 5 | 10 | 28 | -1.3 | -4 | -10
Cc1ncc(S(=O)(=O)c2ccc(Cl)cc2)c(-c2ccccc2)n1 | -1 | 9 | -2 | 0.2 | 10 | -5
COc1ccc(Nc2nc(NN)nc(Nc3ccc(OC)cc3)n2)cc1 | -3 | . | 0 | -0.7 | 0 | 13
O=C(CSc1nnc(-c2ccccc2F)n1CCc1ccccc1)Nc1ccc2[nH]c(=O)[nH]c2c1 | 16 | -16 | -1 | -0.1 | -20 | -16

A few values from the results shown.
For TRPML1 inh, CCOc1ccc(N2C(=O)Nc3ccccc3C2(O)C(=O)NCc2ccc(C)cc2)cc1 (centres undefined) has the entry -1
For CtBP-E1A inh, O=C(CSc1nnc(-c2ccccc2F)n1CCc1ccccc1)Nc1ccc2[nH]c(=O)[nH]c2c1 has the entry -16
For D2 PAM, Cc1ncc(S(=O)(=O)c2ccc(Cl)cc2)c(-c2ccccc2)n1 has the entry -5
For TRPML1 agonist, CCC(COC(C)=O)Nc1nc2c([nH]1)c(=O)n(C)c(=O)n2C (centres undefined) has the entry -1.3
For TRPML1 inh, CCN(Cc1ccc(OC)c(F)c1)C(C)C(=O)Nc1ccc(S(=O)(=O)N2CCCC2)cc1 (centres undefined) has the entry -3
For D2 PAM, Cc1ccn2c(C(=O)N/N=C\c3ccccc3[N+](=O)[O-])c(C)nc2c1 has the entry 6

More results:
smiles | TRPV1 PAM | CtBP-E1A inh | TRPML1 inh | TRPML1 agonist | Six1-Eya2 blk | D2 PAM
C(=C\c1cc(/C=C/c2ccccc2)ncn1)/c1ccccc1 | -9 | 6 | 13 | 4.3 | 10 | 1
COc1cccc(CNC(=O)C2(C)CCCCN2C)c1 (centres undefined) | . | 8 | . | -0.8 | 4 | -5
CCOc1ccccc1N1CCN(S(=O)(=O)c2ccc3c4c(cccc24)C(=O)N3)CC1 | -22 | -18 | 28 | 1.8 | -24 | 3
COc1cc(CNC(=O)CCC(=O)N2C[C@H]3C[C@H](C2)c2cccc(=O)n2C3)cc(OC)c1OC | ? | -5 | . | . | -20 | -19
O=S(=O)(/N=C(/Nc1ccccn1)c1ccccc1)c1ccc(F)cc1 | 10 | 4 | -3 | -0.6 | 0 | -12
CC1CCN(S(=O)(=O)c2ccc3c(c2)oc(=O)n3CC(=O)NCc2ccc3c(c2)OCO3)CC1 | -4 | -1 | -12 | -0.7 | 2 | 8
COCC(=O)NC(c1ccccc1)c1ccccc1 | -21 | 7 | 12 | 0.6 | -3 | -2
O=C(CSc1nc2ccccc2o1)N1c2ccccc2Sc2ccc(C(F)(F)F)cc21 | ? | -4 | -17 | 1.6 | 11 | -7
Cc1cc(C)cc(Nc2cc(=O)n(C3CCCCC3)c(=O)[nH]2)c1 | 15 | 2 | 7 | 0.2 | 1 | -1
